Vaccinia mCherry: inhibitors of vaccinia virus infection (mCherry reporter signal); Vaccinia virus mCherry reporter infection, fluorescence; about a quarter of the inactives have no number; Potency, µM (series often up to 36.5 µM), inactives show at the highest dose activity change, negative = inhibition, actives largely listed as inhibitors; 0.63% of 310,000 active; AID 720579; active = well fitted inhibition curve with a large enough effect; inconclusive = small, poorly fitted or top-dose-only effect; inactive = no such curve, though single readings can be large or run the other way; tested in A549 cells; further: nearly all actives have a fitted effect of over 35% in size; inactives centre near -10
Vaccinia Venus: vaccinia inhibition (Venus reporter); Vaccinia virus Venus reporter expression, fluorescence; Potency, µM (highest dose often 36.5 µM), for the others: top-dose activity change, negative = inhibition, usual class: inhibitors; 0.46% of 330,000 active; AID 720580; active means well fitted inhibition curve with a large enough effect; inconclusive means small, poorly fitted or top-dose-only effect; inactive means no such curve, though single readings can be large or run the other way; tested in A549 cells; further: nearly all actives have a fitted effect of over 30% in size; inactives centre near -10
An asterisk follows results filed as active; i = inactive; ? = inconclusive; nt = no result given; & = joins results of further samples; [ ] = remark or other dose. On the % scale 0 is the no-effect control and ±100 the full control effect; potency means the concentration at half of the fitted maximal effect.

compound | Vaccinia mCherry | Vaccinia Venus
CN(C)c1ccc(/C=C2\C(=O)/C(=C\c3ccc(N(C)C)cc3)c3ccccc32)cc1 | i | -3%
COc1ccc(S(=O)(=O)NCCc2sc(-c3cccc(F)c3)nc2C)cc1 | 6% | -7%
CC1CCCC(NC(=O)CC2Nc3ccccc3NC2=O)C1C (centres undefined) | -11% | -21%
COc1ccc(OCCNC(=O)/C=C/c2ccccc2)cc1 | 0% | -4%
Cc1c(C(=O)NCCSCc2ccccc2)cccc1[N+](=O)[O-] | -25% | -30%
COC(=O)[C@@H]1CCCN1C(=O)CCc1nnc(CCC2CCCCC2)o1 | i | -18%
N#Cc1c(-c2ccccc2)nc(SCc2ccc([N+](=O)[O-])cc2)[nH]c1=O | -11% | -11%
COc1ccc(OC)c(NC(=O)Cn2cnc3sc(C)c(S(=O)(=O)N4CCN(c5ccccc5OC)CC4)c3c2=O)c1 | -7% | -7%
CCOCCCN(C)C1CCN(C(=O)c2oc3ccccc3c2NC(=O)Cc2ccc(F)cc2)CC1 | -13% | -28%
Cc1ccc(C(=O)NCC(=O)OCCCOC(=O)CNC(=O)c2ccc(C)cc2)cc1 | i | 1%
O=C(Nc1nc2ccc(F)cc2s1)C1CCCO1 (centres undefined) | -11% | -15%
Nc1nc(N)c(N=Nc2ccc(C(=O)O)cc2)c(N)n1 | i | 3%
CCCC(=O)O/N=C(\c1ccccc1)c1ccncc1 | i | -3%
CCC(=O)N1CCc2cc(S(=O)(=O)CCC(=O)N3CCc4ccccc4C3)ccc21 | -4% | -1%
CCc1c(O)nc(SCC(=O)Nc2ccccc2OC)[nH]c1=O | -11% | -11%
CCOc1cccc(/C=C/c2ccc3ccccc3n2)c1OC(C)=O | ? | ?
Cc1ccccc1OCc1nc2ccccc2c(=O)n1/N=C/c1c[nH]c2ccccc12 | i | -14%
COc1cccc(NC(=O)COc2ccc(C(=S)N3CCN(C)CC3)cc2OC)c1 | -24% | -21%
COc1ccc(S(=O)(=O)NC(CC(=O)NCc2ccc3c(c2)OCO3)c2ccco2)cc1 (centres undefined) | nt | -7%
COC(=O)Cc1ccc(NC(=O)c2ccc3c(c2)C(=O)N(Cc2cccnc2)C3=O)cc1 | i | -21%
Cn1nnnc1SCC(=O)Nc1ccccc1C(N)=O | i | 3%
CC(C)CN(C(=O)C1CCCO1)c1c(N)n(CC(C)C)c(=O)[nH]c1=O (centres undefined) | -19% | -12%
N#Cc1ccccc1CSc1nnc(-c2ccncc2)o1 | ? | ?
COc1ccc(-c2csc(NC(=O)CSCc3c(C)noc3C)n2)c(OC)c1 | -7% | -18%
CCN(CC)S(=O)(=O)c1cccc(NC(=O)c2ccccc2Br)c1 | -24% | -9%
COc1ccc(-c2nc(CN3CCC(C(=O)NCCN(CC(C)C)CC(C)C)CC3)c(C)o2)cc1OC | -17% | -17%
C/C(=N\NC(=O)c1ccc([N+](=O)[O-])cc1)c1cccc([N+](=O)[O-])c1 | i | -10%
CC1CCC(C(C)C)[C@H](O)C1 (some centres undefined) | -19% | -12%
COc1cccc(-c2nc(-c3ccc(NC(=O)Cc4ccccc4OC)cc3)no2)c1 | i | 10%
Cn1c(=O)c2c(nc(CN3CCN(C(=O)c4ccco4)CC3)n2Cc2ccc(F)cc2)n(C)c1=O | -23% | -21%
O=C(c1ccc2ccccc2c1)C1CCCN(C(=O)c2cnccn2)C1 (centres undefined) | i[7.34 µM] | -14%[7.34 µM]
CC1=CN2C(=N)/C(=C/c3ccc(Sc4ccc(C)cc4)o3)C(=O)N=C2S1 | ? | -24%
O=S(=O)(NCCc1ccc(F)cc1)c1ccc(F)cc1Br | -4% | -28%
O=C(CCN=C1NS(=O)(=O)c2ccccc21)OCc1cccc(Cl)c1 | i | -14%
CCc1ccc(NC(=O)CSc2nc(C)c(C(=O)Nc3ccccc3)c(-c3ccc(OC)c(OC)c3)c2C#N)cc1 | -13% | -14%
CCN1CCc2c(sc(NC(=O)c3ccc(S(=O)(=O)N4CCOCC4)cc3)c2C(=O)OC)C1 | ? | -29%
COC(=O)c1c(-c2ccc(C)cc2)csc1NC(=O)Cc1ccc(OC)c(OC)c1 | -22% | -21%
Cc1ccc2oc(C(=O)Nc3cccc(-c4nc5ccccc5s4)c3)c(C)c2c1 | -11% | 4%
CC(C)(C)OC(=O)N1CCC(c2c(C(=O)N3CCCCC3)cnn2-c2ccc(F)cc2F)CC1 | -11% | 2%
CN1CCN(S(=O)(=O)c2cccc(C(=O)NC3CCCc4ccccc43)c2)CC1 (centres undefined) | -8% | -10%
Cc1cccc(NC(=O)CSc2nnc(CNC(=O)c3ccc(S(=O)(=O)N(C)C)cc3)n2-c2ccccc2)c1 | -25% | -10%
Nc1ccc2nc(-c3ccc(O)cc3)sc2c1 | 22% | 11%
C=CCN1C(=O)CN=C1Nc1cc(C)ccc1C | -14% | -15%
CC1(C(=O)NCC2CC2)Cc2c(-c3ccccc3)ccnc2O1 (centres undefined) | 2% | -28%
COc1cccc(CC(=O)N2CCN(c3ccccc3[N+](=O)[O-])CC2)c1 | -10% | -3%
CCCCCN1C(=O)c2ccccc2[C@@]2(C(=O)OCC)Cc3cc(OC)ccc3[C@@H]12 | ? | ?
COc1ccc(CNC(=O)c2ccc(N3CCC4(CC3)CC(c3ccc(Cl)cc3)=NO4)c(NC(=O)Cc3ccc(F)cc3)c2)cc1 | 6% | -16%
CC(C)Oc1ccc(C(=O)N2CCCCC2CCN2CCCCC2)cc1 (centres undefined) | -18% | -9%
CCn1c(SCC(=O)NC2CCCCC2)nnc1-c1cc2cccc(OC)c2o1 | -25% | -16%
Cc1ccnc(NC(=O)COC(=O)C23CC4CC(CC(C4)C2)C3)n1 | -10% | 1%
COc1ccc(S(=O)(=O)N2CCC(n3c(C(F)(F)F)nc4cccnc43)CC2)cc1OC | 0% | -9%
CC(C)(C)c1[nH]nc2c1C(c1ccco1)C(C#N)=C(N)O2 (centres undefined) | -1% | 1%
N#Cc1nc(-c2ccc(COc3ccccc3)o2)oc1N1CCCCC1 | -1% | -9%
O=C(c1nc2ncccn2n1)N1CCOc2ccc(C(O)C(c3ccccc3)c3ccccc3)cc2C1 (centres undefined) | -1% | -2%
CC(C)[C@@H]1Cc2[nH]c(=S)[nH]c(=O)c2[C@H](C)O1 | 38%[activator] | 0%
COc1ccc(OC)c(NC(=O)CSc2nncc3ccc(OC)c(OC)c23)c1 | -13% | -2%
CCCCCOC(=O)c1ccc(NC(=O)c2ccco2)cc1 | -16% | -8%
COc1cccc(NC(=S)N(CCCN2CCCC2)Cc2cccn2Cc2ccc(Cl)cc2)c1 | -25% | -16%
CCc1ccc(C(C)NC(=O)C2CCCO2)cc1 (centres undefined) | -4% | -16%
Cc1cc(N2CCOCC2)nc(SCC(=O)OCc2ccccc2)n1 | -10% | -12%

Reformatted with each value named: part of the list above
COc1ccc(CNC(=O)c2ccc(N3CCC4(CC3)CC(c3ccc(Cl)cc3)=NO4)c(NC(=O)Cc3ccc(F)cc3)c2)cc1
  Vaccinia mCherry: 6% | Vaccinia Venus: -16%
COC(=O)[C@@H]1CCCN1C(=O)CCc1nnc(CCC2CCCCC2)o1
  Vaccinia mCherry: i | Vaccinia Venus: -18%

Next part
compound | Vaccinia mCherry | Vaccinia Venus
C=C(c1cccc2ccccc12)P(=O)(O)O | nt | -10%
O=S(=O)(c1cccc(F)c1)N1CCC(Oc2ccc(-n3cnnn3)cc2)CC1 | -17% | -23%
CCCCNC(=O)c1nc(-c2ccccc2)oc1-c1ccc(Cl)cc1 | -13% | -13%
Cc1ccc(C(=O)NC2(C(F)(F)F)C(=O)Nc3c2c(=O)[nH]c(=O)n3CCc2ccccc2)cc1 (centres undefined) | -11% | 1%
CC1CCN(S(=O)(=O)c2cn(CC(=O)Nc3ccc(F)c(Cl)c3)c(=O)c3ccccc23)CC1 | -17% | -3%
CN1C(=O)C(O)(CC(=O)c2cccc(-n3cccc3)c2)c2ccccc21 (centres undefined) | -14% | -2%
CCOC(=O)C1CCCC12Nc1cccc3cccc(c13)N2 (centres undefined) | -18% | -2%
CN(C)C(CNC(=S)Nc1ccccc1Cl)c1cccnc1 (centres undefined) | i | -1%
Cc1ccc2c(c1)C(c1ccncc1)=NNC(c1ccc(F)cc1)=N2 | 3% | -6%
Cc1[nH]c2ccc(C(=O)NCCCN(C)C3CCCCC3)cc2c1C | -13% | -17%
O=C(NCCCN1CCCC1=O)c1cc(S(=O)(=O)N2CCN(c3ccccc3)CC2)ccc1Cl | -16% | -11%
CCOCCCNC(=O)C(c1ccc(OC)cc1)N(Cc1ccc2c(c1)OCO2)C(=O)c1ccccn1 (centres undefined) | -4% | -9%
COc1ccc(N2CCN(CC(O)COc3ccc([N+](=O)[O-])cc3)CC2)cc1 (centres undefined) | -12% | -2%
Cc1cc(C(=O)OCC(=O)Nc2nc(-c3ccccc3)cs2)c(C)o1 | nt | ?
O=C1CC(=O)Nc2cc(S(=O)(=O)N3CCOc4ccccc43)ccc2N1 | -8% | -21%&-14%
O=C1NC[C@@H](CCCCN2C[C@H](Cc3ccc(O)cc3)N(CC3CCCCC3)C(=O)C2=O)N(CC2CCCCC2)C1=O | i | -1%
C#CCOc1coc(COC(=O)c2ccccc2)cc1=O | i | -3%
O=C(NCCOC(=O)C1COc2ccccc2O1)c1cccnc1 (centres undefined) | nt | -33%
COc1ccc(C2c3c(n(C)c4ccccc34)C(=O)N2CC(=O)Nc2cccc(F)c2)cc1 (centres undefined) | i | -13%
CSc1ccccc1NC(=O)CN(C)C(=O)c1c(C)nn(Cc2ccccc2)c1C | -14% | -10%
COc1cc2[nH]c(=O)n(CCCC(=O)NCc3ccccc3)c(=O)c2cc1OC | -9% | -9%
FC(F)(F)c1cccc(N2CCN(c3nnnn3-c3ccccc3)CC2)c1 | -24% | -17%
CCOC(=O)COc1cc(=O)n(CC)c2ccccc12 | -16% | -12%
CC(C)CNC(=O)c1ccc(NC(=O)c2ccccc2[N+](=O)[O-])cc1 | -8% | 6%
COc1cccc(C(=O)NCCS(=O)(=O)NCC2CCCO2)c1 (centres undefined) | i | -10%
CCCC(=O)C1=C(O)C(C(=O)OC)C(C)(C)CC1=Nc1ccccc1 (centres undefined) | nt | ?
CCOc1cc(C(=O)OCC(=O)Nc2cc(C)on2)ccc1OCC(C)C | -27% | 3%
COc1ccccc1N1CCN(C(=O)Nc2cccc(C)c2)CC1 | nt | -2%
Cc1cc(C)n(CC(C)Nc2nc3nonc3nc2N2CCCCC2)n1 (centres undefined) | i | -13%
N/C(=N\OC(=O)c1cnn(-c2ccccc2)c1C(F)(F)F)c1ccc(C(F)(F)F)cc1 | i | -8%
O=C(NCCCN1CCOCC1)c1cccc(S(=O)(=O)N2CCc3ccccc3C2)c1 | 0% | -13%
COc1ccc(S(=O)(=O)N2CCN(Cc3nc4ccc(C)cc4o3)CC2)cc1Cl | -13% | -2%
CCCC1C(=O)N(c2ccccc2)C1c1ccccc1 (centres undefined) | nt | 4%
C=CCN(C(=O)c1csnn1)C(C(=O)NCc1ccc(F)cc1)c1ccccc1 (centres undefined) | 18% | -5%
CCCCCc1nnc(NC(=O)C2COc3ccccc3O2)s1 (centres undefined) | -2% | 0%
CCS(=O)(=O)c1nc(S(=O)(=O)c2ccc(C)cc2)c(NCCCN2CCOCC2)s1 | -14% | -4%
Cc1ccccc1CNC(=O)CSc1nnc(C)c2c(C)n(-c3ccccc3)nc12 | -11% | -12%
Oc1ccccc1-c1nc(NCc2cccnc2)c2ccccc2n1 | ? | ?
O=C(c1ccc(N2CCN(S(=O)(=O)c3ccccc3)CC2)c([N+](=O)[O-])c1)N1CCOCC1 | -12% | -16%
COC(=O)c1cc(-c2ccc(Cl)cc2Cl)n[nH]1 | i | -10%
COc1ccc(Cn2c(=O)c3ccccc3n3c(-c4ccc(C)cc4)nnc23)cc1 | -18% | -7%
Cc1sc2ncn(CC(=O)OC(C)C(=O)NC(C)(C)C)c(=O)c2c1C (centres undefined) | -13% | -17%
COC(=O)c1sccc1NC(=O)C1CC(C)=C(C)CC1C(=O)O (centres undefined) | -6% | -14%
Cc1c(-c2nc(-c3ccc4c(c3)OCO4)no2)nnn1-c1ccc(C(C)C)cc1 | -9%[7.34 µM] | -2%[7.34 µM]
Cc1nc(C)c(Cc2ccccc2Cl)c(=O)[nH]1 | -3% | -18%
COc1ccccc1NC(=O)N1CCN(c2ncccn2)CC1 | -1%[1.46 µM] | -17%
COCc1cc(C)nc2sc3c(c12)NC(c1ccc(O)cc1)N(c1ccc(OC)cc1)C3=O (centres undefined) | -10%[7.34 µM] | -11%[7.34 µM]
CC(C)(C)OC(=O)NCCCCCNC(=O)c1nc[nH]c1C(=O)NCc1ccccc1 | ? | -21%

5 consecutive records out of the list so far:
compound | Vaccinia mCherry | Vaccinia Venus
COc1ccc(S(=O)(=O)N2CCN(Cc3nc4ccc(C)cc4o3)CC2)cc1Cl | -13% | -2%
CCCC1C(=O)N(c2ccccc2)C1c1ccccc1 (centres undefined) | nt | 4%
C=CCN(C(=O)c1csnn1)C(C(=O)NCc1ccc(F)cc1)c1ccccc1 (centres undefined) | 18% | -5%
CCCCCc1nnc(NC(=O)C2COc3ccccc3O2)s1 (centres undefined) | -2% | 0%
CCS(=O)(=O)c1nc(S(=O)(=O)c2ccc(C)cc2)c(NCCCN2CCOCC2)s1 | -14% | -4%

Screens as filed in PubChem BioAssay.
